KCNQ2 enhance = potentiators of rat KCNQ2 potassium channel; Potassium voltage-gated channel subfamily KQT member 2 (Rattus norvegicus), O88943; CHO-K1 KCNQ2, FluxOR thallium flux fluorescence; hits give high values; B-score at 10 µM; hit rate 0.54% among 310,000; AID 2239, 2010;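 active = fluorescence ratio B-score at least 3 SD of library B-scores, with initial fluorescence B-score within 3 SD, cut at about 5.3 in these data; same plate scores as AID 2156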;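 also: B-score of peak minus minimum over baseline fluorescence ratio after K+ and Tl+ stimulus; positive B-score means potentiation of KCNQ2 with more thallium influx and brighter signal; only the inactives scoring about 0 or higher are listed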
Target sequence (O88943 whole entry, looked up): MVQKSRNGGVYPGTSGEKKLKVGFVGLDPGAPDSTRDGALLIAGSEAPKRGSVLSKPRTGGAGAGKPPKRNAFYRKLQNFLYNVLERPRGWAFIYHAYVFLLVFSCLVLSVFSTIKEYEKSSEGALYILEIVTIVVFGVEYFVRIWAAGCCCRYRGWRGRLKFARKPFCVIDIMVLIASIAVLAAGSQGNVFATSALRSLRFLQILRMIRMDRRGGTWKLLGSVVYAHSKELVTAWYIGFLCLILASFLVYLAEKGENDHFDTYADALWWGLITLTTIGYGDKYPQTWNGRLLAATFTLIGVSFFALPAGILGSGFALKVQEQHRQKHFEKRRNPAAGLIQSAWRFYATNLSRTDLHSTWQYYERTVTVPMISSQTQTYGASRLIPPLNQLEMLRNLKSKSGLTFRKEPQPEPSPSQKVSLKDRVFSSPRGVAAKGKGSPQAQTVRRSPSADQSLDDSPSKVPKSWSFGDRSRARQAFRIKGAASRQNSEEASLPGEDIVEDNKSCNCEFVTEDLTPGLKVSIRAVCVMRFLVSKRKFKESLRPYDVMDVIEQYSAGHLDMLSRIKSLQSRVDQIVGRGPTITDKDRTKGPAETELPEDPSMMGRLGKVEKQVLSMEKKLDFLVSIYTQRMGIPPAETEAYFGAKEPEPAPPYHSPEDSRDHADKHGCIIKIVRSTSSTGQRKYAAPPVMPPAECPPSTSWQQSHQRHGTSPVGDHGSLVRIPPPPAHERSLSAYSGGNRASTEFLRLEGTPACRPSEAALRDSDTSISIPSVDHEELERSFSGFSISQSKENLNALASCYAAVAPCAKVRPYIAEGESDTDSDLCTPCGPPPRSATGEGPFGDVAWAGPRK
KCNQ2 enhance baseline = second read-out of KCNQ2 enhance, no call of its own (marks repeat the call); B-score; compound at 10 µM; measured here: initial fluorescence intensity artifact check;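 brightness before thallium and not channel activity; 0 = typical well and far values either way flag optical interference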
The depositor's hits bear a star. This is a subset, so the mix of outcomes need not match the whole.

Each structure is followed by: KCNQ2 enhance | KCNQ2 enhance baseline
O=C(O)/C=C/c1cccc(NC(=O)c2ccc(Cl)cc2)c1
    0.12 | -2
O=C(Cn1ccc2ccccc2c1=O)NCC(=O)N1CCCCC1
    0.31 | 0.8
Cc1nc(-c2ccc(Cl)cc2)sc1C(=O)O
    0.79 | 0.83
NC(=O)/C(=C/c1ccco1)NC(=O)c1ccc(Br)o1
    0.44 | 1.3
CCOC(=O)c1ccccc1NC(=O)c1nc2nccc(C)n2n1
    1.2 | 0.41
COc1cc(C(=O)O/N=C(\N)Cc2ccc([N+](=O)[O-])cc2)cc(OC)c1OC
    0.5 | -0.57
CCCCCCNC(=O)CCCCCNS(=O)(=O)c1ccc(Br)cc1
    0.44 | 2.7
Cc1ccc(C(=O)N(Cc2ccc3c(c2)OCO3)Cc2nc3ccccc3c(=O)[nH]2)cc1
    0.47 | 0.41
CCC1CCc2c([nH]c3ccccc3c2=O)O1 (stereo not given)
    1.7 | 0.41
O=C(Nc1cc(S(=O)(=O)N2CCOCC2)ccc1OCC(F)(F)F)C1=COCCO1
    0.28 | 1.5
O=C(CSc1nc2ccc(Cl)cc2[nH]1)NCc1ccco1
    0.53 | 0.96
CCOC(=O)c1c(C)cc(C)n2c1nc1ccccc12
    0.5 | 1.1
O=S(=O)(Cc1cccc(C(F)(F)F)c1)c1ncn[nH]1
    0.03 | 2.5
COc1cc(C)c(C(C)C)cc1S(=O)(=O)n1cnc(C)c1
    0.24 | -1
Cc1ccc[n+](CC(=O)Nc2cc(C(F)(F)F)ccc2N2CCOCC2)c1
    1.9 | -0.01
CCOC(=O)C1=C(C)N(C)C(=O)NC1c1cccc(O)c1 (stereo not given)
    0.81 | 1.7
CCOc1ccc(N(CC(=O)NC2CCCC2)C(=O)CSc2nnc(COc3ccccc3)o2)cc1
    1 | -0.82
CCOC(=O)c1sc(NC(=O)CCN2CCC(C)CC2)c(C(=O)OCC)c1C
    0.82 | 1.8
CC(C)CNC(=S)Nc1ccc(S(N)(=O)=O)cc1
    1.4 | 0.27
CC(C)C(NC(=O)c1ccccc1)C(=O)NC1=NCCS1 (stereo not given)
    0.78 | -1.9
COc1ccc(CC(=O)NCC2CCCCC2)cc1OC
    0.16 | -0.08
CCN(CC)CCNC(C(=O)Nc1cccc(C(C)=O)c1)c1ccccc1 (stereo not given)
    0.67 | 0.82
C[C@H](NC(=O)Cn1cncn1)c1ccccc1
    0.74 | 0.06
O=C(NCCS(=O)(=O)c1ccc(Br)cc1)c1c(F)cccc1F
    0.46 | -0.21
CCN(CC)c1ccc(NC(=O)COc2ccccc2C#N)cc1S(=O)(=O)Nc1ccc(OC)cc1
    0.66 | 1.1
CN(C(=O)c1cccnc1)c1nc(-c2ccccc2)cs1
    0.69 | -0.12
COCCNc1nc2c(c(=O)n(C)c(=O)n2C)n1Cc1cccc(C)c1
    2.1 | -0.04
CCOC(=O)c1c(C)nc2sc3c(c2c1-c1ccc(OC)cc1)NC(c1ccc(OC)cc1)NC3=O (stereo not given)
    1.5 | 0.3
CCn1c2c(c3cc(C(=O)O)ccc31)CCCC2=O
    0.01 | -0.36
COc1cc(C2C(C#N)=C(N)Oc3cc(C)oc(=O)c32)ccc1OC(=O)N1CCOCC1 (stereo not given)
    1.3 | -1.2
CC(OC(=O)Cc1coc2ccc3ccccc3c12)C(=O)NC(N)=O (stereo not given)
    0.5 | 1.3
CCn1c(SC(C)C(=O)O)nnc1-c1cccnc1 (stereo not given)
    4.3 | -1.8
CCN(CC)c1ccc(NC(=O)C2CC3CCC2C3)cc1 (stereo not given)
    23* | 1.1*
Cc1cc(C)c(C)c(S(=O)(=O)N2CCC(C(=O)OCC(=O)N3c4ccccc4NC(=O)C3(C)C)CC2)c1C
    2.4 | -1.6
COc1ccc(C2NC(=O)Cc3cc(OC)c(OC)cc32)cc1OC (stereo not given)
    1.7 | -0.51
CN(c1ccccc1)S(=O)(=O)c1cccc(NC(=O)CC(C)(C)C)c1
    0.08 | 0.03
Cc1ccc(NC(=O)Cc2cccs2)cc1Cl
    4 | 0.72
O=C(CCc1nnc(-c2ccccc2)o1)NC1CCCCC1
    0.62 | 0.02
N/C(=N\O)c1ccc([N+](=O)[O-])s1
    0.2 | 0.01
COc1ccc(Br)cc1CNC(=O)CCNC(=O)Cn1ccc2ccccc2c1=O
    1.2 | 0.01
CCN(CC)CCN1C(=O)c2ccccc2NC1c1ccc(F)cc1 (stereo not given)
    0.59 | 1
Nc1ccccc1C(=O)NC1CCCCNC1=O (stereo not given)
    2.2 | -0.46
CC(NC(=O)CN(C)S(=O)(=O)c1cnc[nH]1)c1ccccc1 (stereo not given)
    0.91 | 0.29
Cc1ccc(CCNC(=O)CC(C)CC2=NS(=O)(=O)c3ccccc3N2)cc1 (stereo not given)
    1.3 | 0.66
COc1ccc(CC(=O)NCc2cccs2)cc1OC
    0.43 | 0.07
CC(=O)N(C)c1ccc(N=Cc2cc3c(cc2[N+](=O)[O-])OCO3)cc1
    2.5 | 0.29
O=C(NCC(=O)N(c1cccc(F)c1)C(C(=O)NCC1CCCO1)c1ccccc1)c1ccco1 (stereo not given)
    0.17 | -1.1
CCOc1cc(CNC)ccc1OCC(=O)NC(C)(C)C
    0.5 | -0.41
COc1ccccc1NC(=O)C(C)NC(c1ccccc1)c1ccccc1 (stereo not given)
    1.4 | -1.6
CC(C)NS(=O)(=O)c1ccc(OCC(=O)N(C)Cc2ccccc2)cc1
    0.59 | 1.8
O=C(NC(=S)Nc1ccc(Cl)cn1)c1cccs1
    2.5 | 1.2
O=C1c2ccccc2C(=O)c2c1oc(C(F)(F)F)c2C(=O)c1ccccc1
    0.18 | -0.69
O=C(CSc1nnc(NC(=O)C2CCC2)s1)Nc1ccccc1
    0.78 | 1.4
O=C1c2ccccc2NC(c2ccc(O)cc2)N1c1ccccc1 (stereo not given)
    0.1 | -0.58
CC(Oc1ccc2ccc(=O)oc2c1)C(=O)c1ccccc1 (stereo not given)
    0.15 | 0.18
Cc1cc(C)nc(Sc2ccc(C=O)cc2[N+](=O)[O-])n1
    0.01 | -0.37
Cc1ccc([N+](=O)[O-])c(OCCCN2C(=O)NC(C)(C)C2=O)c1
    0.96 | 1.3
O=C(CCNS(=O)(=O)c1ccc(Br)cc1)NCc1ccc(Cl)cc1
    0.1 | -2
CC(C)c1cc(=O)[nH]c(N2CCN(Cc3ccc4c(c3)OCO4)CC2)n1
    0.84 | 0.81
Cn1c(Cn2c(=O)sc3ccccc32)nnc1SCC(=O)N1CCCCCC1
    2.7 | -1.9

Remaining list, next part
Each structure is followed by: KCNQ2 enhance | KCNQ2 enhance baseline
O=C(N/N=C/c1ccc(Br)s1)c1ccncc1
    0.09 | 1.2
Cc1ccc2c(c1)NC(=O)c1cccnc1N2
    1.1 | 0.75
Cc1ccc2c(C)nc(Nc3nc(CSc4nc5ccccc5[nH]4)cc(=O)[nH]3)nc2c1
    0.35 | -0.86
Cc1cc(N2C(=O)NC(=O)CC2C)c(C)cc1C(C)C (stereo not given)
    1.6 | -1.6
CCOC(=O)C1CCCN(C(=O)c2cccs2)C1 (stereo not given)
    0.53 | 0.28
CC(C)c1ccc(OCC(O)CNC(C)c2ccccc2)cc1 (stereo not given)
    2.2 | 1.2
COc1ccc2cc3c(N)nn(C(=O)c4ccc(Cl)c([N+](=O)[O-])c4)c3nc2c1
    0.66 | 0.95
CC(C)(C)OC(=O)CN1C(=O)NC2(CCCc3ccccc32)C1=O (stereo not given)
    0.07 | -0.07
COc1ccc(C(=O)N/N=C\C(C)=C\c2ccccc2)cc1OC
    1.7 | 0.08
O=c1c(=O)n2c(nn1Cc1ccc(F)cc1)sc1ccccc12
    0.12 | -2.4
COc1ccc2oc(=O)c(-c3ccccc3C(=O)N3CCOCC3)cc2c1
    1.1 | -0.24
CCCCNS(=O)(=O)c1ccc(NC(=O)c2cccs2)cc1
    0.04 | -0.26
O=C(CSc1nnc(-c2cccnc2)o1)NNC(=O)c1ccc(Br)cc1
    0.79 | -0.64
O=C(CSC1=NC2(CCCCC2)N=C1c1ccccc1)Nc1ccc2c(c1)OCCO2
    0.5 | 1.1
COC(=O)Nc1ccc(S(=O)(=O)NC2CCS(=O)(=O)C2)cc1 (stereo not given)
    1.5 | 0.49
COCCn1c(C)cc(/C=C2/NC(=O)N(Cc3ccc(C)cc3)C2=O)c1C
    0.9 | -0.6
CCN(CC)C(=O)CC(c1ccc(N(C)C)cc1)c1c(OC)cc(OC)c2ccc(=O)oc12 (stereo not given)
    0.13 | -0.3
CCn1c(SCC(=O)Nc2ccc(OC)cc2)nc2c(c1=O)SCC2
    0.13 | -0.49
Cc1cc(Nc2cccc(C)c2C)n2nc(C)nc2n1
    1.7 | 0.03
O=C1NC(=S)N(C(=O)c2ccc(F)cc2)/C1=C/c1ccccc1
    2.1 | 1.3
Cc1ccccc1-c1nnc(NC(=O)c2ccc(N3C(=O)CCC3=O)cc2)s1
    0.33 | 0.06
Cn1c(N)c(C(=O)COC(=O)CSc2cccc3cccc(Cl)c23)c(=O)n(C)c1=O
    0.88 | 0.03
Cc1cc(NC(=O)C2CC(=O)N(c3ccc(Cl)cc3)C2)no1 (stereo not given)
    1.1 | 0.1
COc1ccc(C(=O)Nc2ccc3oc(-c4cccc(F)c4)nc3c2)cc1OC
    0.05 | 1.9
COc1cc(C(=O)c2nccc3cc(OC)c(OC)cc23)c([N+](=O)[O-])cc1OC
    1.1 | -1.9
Cc1ccc(NC(=O)CCN2C(=O)c3ccccc3S2(=O)=O)cc1C
    0.66 | 0.63
CC(=O)C1=C(C)Nc2ncnn2C1c1ccc(F)cc1 (stereo not given)
    0.94 | -1.2
Cc1c(-n2c(SCC(=O)O)nnc2-c2ccccc2Cl)c(=O)n(-c2ccccc2)n1C
    0.46 | 0
Cc1cc(OCc2ccc(C(=O)Nc3ccc(C(=O)O)cc3)o2)ccc1Cl
    0.76 | -0.11
CC(C)(C)NC(=O)CSc1nnc(NC(=O)c2ccccc2Cl)s1
    1.6 | -0.5

Two entries from above, with each value named.
CC(C)(C)OC(=O)CN1C(=O)NC2(CCCc3ccccc32)C1=O (stereo not given)
  KCNQ2 enhance: 0.07	KCNQ2 enhance baseline: -0.07

COc1ccc(C(=O)N/N=C\C(C)=C\c2ccccc2)cc1OC
  KCNQ2 enhance: 1.7	KCNQ2 enhance baseline: 0.08

Next section
SMILES	KCNQ2 enhance	KCNQ2 enhance baseline
Cc1cc(C(=O)CSc2nnnn2C)c(C)n1CCc1ccc(F)cc1	0.76	-0.18
COc1ccccc1/C=C(/C(=O)OCC(=O)N(C)Cc1ccccc1)c1ccccc1	0.69	0.57
O=C(N/N=C/c1cc2c(cc1Cl)OCO2)c1ccccn1	0.01	0.05
CCOC(=O)C1=C(O)CCn2c1nc1ccccc12	0.86	0.07
O=[N+]([O-])c1ccc(Nc2ccccc2)c2nonc12	0.04	-0.42
Cn1ccnc1C(=O)c1cc(SCC(=O)NC2CC2)nc2ccccc12	1.1	-0.51
COc1ccc(-c2cc3nc(C)cc(NCCO)n3n2)cc1	0.79	-0.36
O=c1[nH]c2ccc(Cl)cc2c(=O)n1Cc1ccco1	0.54	-0.79
CCOc1cc(S(=O)(=O)N2CCN(CC)CC2)ccc1Cl	0.28	-0.6
CCc1ccc(NC(=O)C2CCN(S(=O)(=O)c3c(C)[nH]c(=O)[nH]c3=O)CC2)cc1	1.7	-1.7
CCN(Cc1ccncc1)C(=O)c1cc(COc2ccc(F)cc2Cl)on1	0.44	-0.82
Cc1ccc(C(=O)NCCN2CCOCC2)cc1C	0.48	2.4
CSc1nc(-c2ccccc2)nn1C(=O)c1ccco1	1.1	-0.74
CCCN(CC(=O)Nc1ccccc1C)C(=O)c1ccc(C2SCCS2)cc1	2.1	-1.2
Brc1cnc2nc(SC/C=C/c3ccccc3)[nH]c2c1	0.33	-1.1
Cc1cccn2cc(CCNC(=O)Cc3cccs3)nc12	0.06	0.56
COc1ccccc1CNC(=O)C1CCN(S(=O)(=O)c2ccc(N3CCCC3=O)cc2)CC1	0.94	1.4
CCOc1ccccc1C(=O)NCCCn1ccnc1	1.9	0.79
O=c1c2cnn(-c3ccc(F)cc3)c2ncn1Cc1ccccn1	1.1	0.33
O=C(O)CN(c1cccc(C(F)(F)F)c1)S(=O)(=O)c1ccccc1	0.15	-0.73
CC1(C(=O)N(CC(=O)NC2CCCC2)Cc2ccco2)CC(=O)N=C2C=CC=CN21 (stereo not given)	0.24	0.12
COc1ccc(C(=O)COC(=O)C(C)N2C(=O)C3C4CCC(C4)C3C2=O)cc1 (stereo not given)	0.66	-0.21
CCn1c(=N)n(CC(=O)c2ccc(OC)cc2)c2ccccc21	3.2	-2.6
COc1cc(/C=N/NC(=O)c2cccc([N+](=O)[O-])c2)cc(OC)c1O	1.9	0.63

Overlap with the part before: 5 compounds; new compounds follow.
SMILES	KCNQ2 enhance	KCNQ2 enhance baseline
O=C(O)CN(c1cccc(C(F)(F)F)c1)S(=O)(=O)c1ccccc1	0.15	-0.73
CC1(C(=O)N(CC(=O)NC2CCCC2)Cc2ccco2)CC(=O)N=C2C=CC=CN21 (stereo not given)	0.24	0.12
COc1ccc(C(=O)COC(=O)C(C)N2C(=O)C3C4CCC(C4)C3C2=O)cc1 (stereo not given)	0.66	-0.21
CCn1c(=N)n(CC(=O)c2ccc(OC)cc2)c2ccccc21	3.2	-2.6
COc1cc(/C=N/NC(=O)c2cccc([N+](=O)[O-])c2)cc(OC)c1O	1.9	0.63
CCN=C(NC#N)SCc1c(F)cccc1Cl	0.35	-0.38
Cc1ccc(NC(=O)N2CCCC2C(=O)NCCC2=CCCCC2)cc1 (stereo not given)	0.14	0.56
Cc1noc(C)c1C(=O)Nc1ccc2ccccc2c1	0.36	0.9
NC(=O)c1cc2ccccc2o/c1=N\NC(=O)c1ccc(F)cc1	0.05	-1.9
NC(=NC(=O)c1ccccc1)N1N=CCC1c1ccccc1 (stereo not given)	0.27	-0.01
CCCNC(=O)c1ccc(CN2CCOCC2)cc1	2.7	0

High-throughput results (PubChem)
